Autofluor counter: counter-screen for toxin protease inhibitors: compound fluorescence. compound autofluorescence counterscreen, microsphere flow cytometry; hits give high values. 360,000 tested, 3.1% active. fluorescence intensity (no concentration beside the values). AID 624483;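 active = at least 3 SD above the mean of all compounds, about 16000 in these data; inconclusive = too few beads counted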;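 also: 100 nL of 1 mM stock went into each well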
ugtP null kill: growth inhibition of ugtP-null S. aureus, primary screen, RN4220 ugtP deletion, OD600; growth inhibition, % (no concentration beside the values); 16 h; some inactives read as strong as hits; 330,000 tested, 0.54% active;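 active = z-score under -3 and OD600 up to 0.15 on both plates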;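 also: plate controls were untreated wells for no effect and antibiotic for full effect; wells of about 80 µL received 100 nL stock; the first replicate is given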
Sa RN4220 lethal: growth inhibition of S. aureus RN4220, primary screen, OD600 | inhibition, % (test concentration not listed) | 16 h | 330,000 tested, 0.33% active;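 active = z-score of -3 or lower and OD600 up to 0.18 on both plates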;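 also: plate controls were untreated cells for no effect and reference antibiotic for full effect; stock transfer was 100 nL into about 80 µL; one replicate is shown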
PrP UTR inh: inhibition of PrP 5' UTR reporter expression. inhibition, % (concentration not given with the values). cell-based PrP 5' UTR mRNA reporter, plate reader. 340,000 tested, 0.35% active;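 active = every replicate at 50% or more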;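 also: 0 = median of the neutral control wells; tested in H4 reporter cells; numbers are from one replicate; inactives centre near -14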
BJeLR viability: MLPCN primary cell-based screen for lethality selective to Ras in HRASV12 cells; BJeLR (HRASV12) viability, CellTiter-Glo ATP luminescence, 48 h; reference of the scale not given here; inhibition, % (concentration not given with the values); 300,000 tested, 0.17% active;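 active = replicate mean above 50%; inconclusive = above 50% but judged a plate artefact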;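 also: 50 nL library stock added to about 25 µL; numbers are from one replicate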
Mtb hypoxia rep: PubChem AID 1159583. M. tuberculosis hypoxia-regulated fluorescent reporter, fluorescence. fluorescence inhibition, % (concentration not given with the values). 300,000 tested, 0.1% active;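 active = 35 to 45% if threefold the growth effect, above 45% if 1.5-fold the growth effect; inactive = the rest, general growth blockers included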;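 also: wells of about 50 µL received 100 nL stock; 0% = vehicle wells and 100% = reference inhibitor wells; whole bacteria with a GFP reporter of the hypoxia response; strong numbers were not always called active; many hits fall short of the cut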
Mtb hypoxia rep growth: also measured in Mtb hypoxia rep; calls as there; growth inhibition, %; measured here: M. tuberculosis growth (absorbance);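 0% = vehicle and 100% = reference antibiotic; read after six days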
* hit, by the source's call; ? = inconclusive; . = no result given; & = joins results of further samples.

SMILES	Autofluor counter	ugtP null kill	Sa RN4220 lethal	PrP UTR inh	BJeLR viability	Mtb hypoxia rep	Mtb hypoxia rep growth
CC1=C(C(=O)OCCOC(C)C)C(c2cc3c(cc2Br)OCO3)C2=C(CCCC2=O)N1 (stereo not drawn)	11098	-12	16	-2	-8	11	6
NC(=S)N=Nc1c(O)n(CCCl)c2ccc(Cl)cc12	3823	2	3.8	-16	4	1	9
COc1ccccc1C1CC(c2ccc(Cl)cc2Cl)Nc2nc(N)nn21 (stereo not drawn)	5489	-3	5.6	-33	-9	.	.
Cn1nnnc1-c1cc(Br)ccc1NC(=O)c1ccccc1	2859	-1	-1.0	-24	9	.	.
CN(C/C=C/c1ccccc1[N+](=O)[O-])Cc1ccccc1	3275	4	4.0	-16	-4	4	-3
COC(OC)c1ccnc(-c2ccc(OC(=O)c3ccc(F)cc3)cc2)n1	4086	26	5.7	-14	-2	0	6
CCn1c(CNC(=O)c2cccc(C)c2)nnc1SCC(=O)Nc1nnc(C)s1	3701	7	3.3	-23	-6	5	3
COc1ccc(S(=O)(=O)N2CCC(C(=O)NCC3CC3)CC2)cc1	3057	7	0.3	-16	-3	2	-1
Cc1cc(C)cc(NC(=O)CSc2nc3ccncc3[nH]2)c1	6465	8	2.5	-5	-8	3	-6
Cc1ccc(OCC(=O)Nc2cccc(O)c2)cc1C	3210	7	-0.1	-79	-3	.	.
CCC(C)(C)NC(=O)c1cc(S(=O)(=O)N2CCCCC2)ccc1N1CCOCC1	3355	2	5.5	-22	3	7	5
Cc1cccc(OCCN2CCOCC2)c1C	3661	0	1.8	-26	-1	12	10
COc1ccc(-n2nc(C(=O)NCC(=O)Nc3ccc(F)cc3)c3ccccc3c2=O)cc1	2861	-3	0.0	3	-13	4	-1
CN1CCc2c(sc(NC(=O)CS(=O)(=O)c3ccccc3)c2C(N)=O)C1	?	13	1.4	-13	3	5	0
CCC(C)n1c(SCC(=O)NC(=O)c2cccn2C)nc2ccccc2c1=O (stereo not drawn)	4360	1	3.2	-2	0	-1	15
Cc1ccn2c(=O)c(NC(=O)c3cccs3)c(C)nc2c1	.	8	1.5	0	2	2	-4
Cc1ccc(C)c(OCCCCn2cnc3ccccc3c2=O)c1	10822	5	9.1	-40	-12	7	14
Oc1cc2c(cc1O)C(c1ccccc1)CNCC2 (stereo not drawn)	6266	-10&1	0.7&10	-20	5	5&-3	-4&-1
COc1ccc(C=NNC(=O)c2cccc([N+](=O)[O-])c2)cc1Cn1cc([N+](=O)[O-])cn1	.	1	2.7	.	.	3	4
CN(C)c1ccc(/C=N/NS(=O)(=O)c2ccc(Br)cc2)cc1	4610	.	.	-5	-7	.	.
COC(=O)c1cc(-c2cc(OC)ccc2OC)nc2c1c(=O)n(C)c(=O)n2Cc1ccccc1	3629	12	-0.2	-12	2	-1	2
CC(C)CN(C(=O)c1ccc(F)cc1F)c1c(N)n(CC(C)C)c(=O)[nH]c1=O	6001	8	2.4	-1	-14	-1	6
Cc1cc(C)c2nc(NC(=O)CN3C(=O)NC4(CCCC4)C3=O)sc2c1	?	-1	3.5	-6	16	-13	1
C[C@@H]1CN(Cc2nc(-c3ccc(Cl)cc3)no2)C[C@H](C)O1	3419	2	2.3	-1	1	12	12
Cc1ccc(CS(=O)(=O)CCC(=O)NCc2ccccn2)cc1	.	-2	8.2	-15	10	5	7
Cc1cccc(S(=O)(=O)NNC(=O)c2cc(-c3ccc(F)cc3)nc3ccccc23)c1	4121	9	4.3	-21	15	9	10
O=C(CN1CCN(S(=O)(=O)c2ccccc2Cl)CC1)NCC1(N2CCOCC2)CCCCC1	.	0	3.9	-17	.	6	0
COc1cc2c(cc1NC(=O)C(C)OC(=O)/C=C/c1ccc(OC(F)F)cc1)oc1ccccc12 (stereo not drawn)	2548	9	1.5	-27	-3	12	4
COc1ccccc1N1CCN(C(=O)CC2NC3CCCCC3NC2=O)CC1 (stereo not drawn)	.	6	2.2	.	1	.	.
CCCNCc1cc(OCC)c(OCC(N)=O)cc1Br	4662	-1	1.3	-13	3	.	.
CC1(C)CC(CNCCC(c2ccc(F)cc2)c2ccco2)CCO1 (stereo not drawn)	4430	18	1.5	-14	3	-5	2
CCOc1cccc(C2C(C(=O)c3ccc(C)o3)=C(O)C(=O)N2Cc2ccccc2)c1 (stereo not drawn)	5304	30	11	-15	-4	-1	1
N#CC1=C(N)N(c2ncn[nH]2)C2=C(C(=O)CCC2)C1c1ccc(F)cc1 (stereo not drawn)	2544	3	0.2	7	-3	5	5
Cc1ccc(Nc2nc(CSc3nnc(-c4ccncc4)n3-c3ccccc3C)cs2)cc1	2316	7	4.8	-25	2	2	-4
COc1ccc(O)c(C(=O)c2cnc3c(c2)c(C)nn3C)c1	3017	13	4.3	-12	-4	6	2
COc1ccccc1N(CC(=O)Nc1ccc2c(c1)OCCO2)S(=O)(=O)c1ccc(C)cc1	5737	-2	2.1	-7	0	-11	-3
O=C(NCCC1CCCCN1S(=O)(=O)c1ccccc1)C(=O)NCc1ccncc1 (stereo not drawn)	6617	6	-1.6	-6	1	-3	-6
CCCCN(C)CCCNC(=O)c1cc(-c2cccnc2)nc2ccccc12	3815	4	-5.0	-8	3	6	8
Cc1ccc(S(=O)CCNC(=O)Cc2ccccc2)cc1 (stereo not drawn)	4141	0	0.7	-24	1	3	8
Cc1cc(Cl)c2oc(C(=O)N(C)CCCCN3CCOCC3)c(C)c2c1	3916	4	4.7	-26	2	6	15
COc1ccc(CC(=O)Oc2ccc(C(C)(C)C)cc2)cc1S(=O)(=O)N1CCOCC1	?	8	4.1	-24	3	3	8
Cc1ccc(S(=O)(=O)NCCC(=O)OCC(=O)N(Cc2ccccc2)C(C)(C)C)cc1C	5840	-2	-3.0	-18	6	1	3
CCC(=O)N1CCN=C1SCc1c(F)cccc1Cl	4608	3	5.1	-14	-5	-2	-4
COC(=O)c1sc(N2CCN(c3ccc(Cl)cc3)CC2)nc1N	4534	-11	7.2	-31	-2	1	-5
Nc1nc2ncc(C(=O)c3cc(Cl)cc(Cl)c3O)cc2s1	3320	9	-4.8	0	13	13	6
CS(=O)(=O)c1cccc(C(=O)Nc2cccc(-c3nc4ccccc4[nH]3)c2)c1	4661	4	2.9	-14	1	2	1
Fc1ccccc1/C=C1\CCCC2=C1Nc1nnnn1C2c1ccccc1F (stereo not drawn)	22685*	5	1.5	11	4	0	4
Cc1ccc(-n2nc3c(c2NC(=O)c2ccc(OC(C)C)cc2)CS(=O)C3)cc1 (stereo not drawn)	4703	-4	-7.1	-13	14	.	.
O=C(O)c1cc(NN=Cc2ccc3c(c2)OCO3)ccc1Cl	.	9	-2.1	.	.	16	10
Fc1cccc(CN2CCN(Cc3nc(CCc4ccccc4)no3)CC2)c1	4256	11	4.4	-33	-1	6	7
Cc1cccc(C)c1NC(=O)c1sc(N)nc1-c1ccccc1	4310	2	3.4	-5	7	6	12
NCC(Cc1ccccc1)NCCc1cc(C(F)(F)F)cc(C(F)(F)F)c1 (stereo not drawn)	.	3	-2.6	.	.	21	9
CCOC(=O)c1c(C)oc2ccc(NS(=O)(=O)c3ccc4c5c(cccc35)C(=O)N4)cc12	11675	23	1.2	.	4	4	8
O=C(c1cccc(S(=O)(=O)NCc2ccccc2)c1)N1CCCC1	4915	10	6.2	-19	6	13	4
COc1ccc(N=Cc2c(O)n(Cc3cccs3)c(=O)[nH]c2=O)cc1	2511	5	0.7	-37	-2	-8	14
COC(=O)C1CC(=NNS(=O)(=O)c2ccc(C)cc2)c2ccsc2C1 (stereo not drawn)	.	0	4.2	.	.	10	5
COc1ccc(NC(=O)c2ccc(NC(=O)c3nc4nccc(C)n4n3)cc2)cc1	4061	-3	1.4	-20	.	6	8
O=C(c1cccc(Oc2ccc([N+](=O)[O-])cc2Cl)c1)N1CCOCC1	5979	1	-0.6	-9	6	3	1
Cc1cc(OCCOc2cccc3cccnc23)c(C)cc1Cl	2425	-4	-1.7	-26	3	.	.
CCCOC(=O)NC(CC)COC(=O)Nc1cc(C)ccc1C (stereo not drawn)	3329	-14	-8.0	-18	10	2	7

Part of the list above, limited to BJeLR viability and Sa RN4220 lethal.
smiles,BJeLR viability,Sa RN4220 lethal
Fc1ccccc1/C=C1\CCCC2=C1Nc1nnnn1C2c1ccccc1F (stereo not drawn),4,1.5
Cc1ccc(-n2nc3c(c2NC(=O)c2ccc(OC(C)C)cc2)CS(=O)C3)cc1 (stereo not drawn),14,-7.1
O=C(O)c1cc(NN=Cc2ccc3c(c2)OCO3)ccc1Cl,.,-2.1
Fc1cccc(CN2CCN(Cc3nc(CCc4ccccc4)no3)CC2)c1,-1,4.4
Cc1cccc(C)c1NC(=O)c1sc(N)nc1-c1ccccc1,7,3.4
NCC(Cc1ccccc1)NCCc1cc(C(F)(F)F)cc(C(F)(F)F)c1 (stereo not drawn),.,-2.6
CCOC(=O)c1c(C)oc2ccc(NS(=O)(=O)c3ccc4c5c(cccc35)C(=O)N4)cc12,4,1.2

Among those listed so far, 5 have an NH in an aromatic ring:
SMILES	Autofluor counter	ugtP null kill	Sa RN4220 lethal	PrP UTR inh	BJeLR viability	Mtb hypoxia rep	Mtb hypoxia rep growth
Cc1cc(C)cc(NC(=O)CSc2nc3ccncc3[nH]2)c1	6465	8	2.5	-5	-8	3	-6
CC(C)CN(C(=O)c1ccc(F)cc1F)c1c(N)n(CC(C)C)c(=O)[nH]c1=O	6001	8	2.4	-1	-14	-1	6
N#CC1=C(N)N(c2ncn[nH]2)C2=C(C(=O)CCC2)C1c1ccc(F)cc1 (stereo not drawn)	2544	3	0.2	7	-3	5	5
CS(=O)(=O)c1cccc(C(=O)Nc2cccc(-c3nc4ccccc4[nH]3)c2)c1	4661	4	2.9	-14	1	2	1
COc1ccc(N=Cc2c(O)n(Cc3cccs3)c(=O)[nH]c2=O)cc1	2511	5	0.7	-37	-2	-8	14

3 structures already listed, ordered by length of the SMILES, highest first:
SMILES	Autofluor counter	ugtP null kill	Sa RN4220 lethal	PrP UTR inh	BJeLR viability	Mtb hypoxia rep	Mtb hypoxia rep growth
COc1ccc(C=NNC(=O)c2cccc([N+](=O)[O-])c2)cc1Cn1cc([N+](=O)[O-])cn1	.	1	2.7	.	.	3	4
CCOC(=O)c1c(C)oc2ccc(NS(=O)(=O)c3ccc4c5c(cccc35)C(=O)N4)cc12	11675	23	1.2	.	4	4	8
CS(=O)(=O)c1cccc(C(=O)Nc2cccc(-c3nc4ccccc4[nH]3)c2)c1	4661	4	2.9	-14	1	2	1

The results go on.
SMILES	Autofluor counter	ugtP null kill	Sa RN4220 lethal	PrP UTR inh	BJeLR viability	Mtb hypoxia rep	Mtb hypoxia rep growth
CC(C)CCNC(=O)c1ccc(CS(=O)(=O)Cc2ccccc2F)o1	4666	7	2.3	.	1	-1	-9
Cc1cc(NC(=O)c2ccco2)c(=O)n(Cc2c(F)cccc2Cl)c1	5307	-4	5.3	-14	-13	3	13
CS(=O)(=O)Nc1ccc(C2=NN(C(=O)c3ccco3)C(c3ccccc3)C2)cc1 (stereo not drawn)	2346	-7	1.4	4	-6	6	-9
CCCc1cc(=O)[nH]c(SCC(=O)N(C)C2CCCCC2)n1	2974	-1	6.1	-18	.	6	8
N#CC1(C#N)COC23CCCCC2C1(C#N)C(=N)O3 (stereo not drawn)	5674	-2	0.4	-22	-6	3	1
COc1ccccc1NC(=O)CSc1nc(O)c(Cc2ccccc2)c(=O)[nH]1	11403	-1	3.1	-9	5	3	5
Cc1cc(NC(=O)CSCC(=O)Nc2cc(Cl)ccc2N2CCN(C)CC2)no1	2985	0	4.6	-3	.	-10	-3
COc1cccc(OC)c1C(=O)N1CCN(c2ccccn2)CC1	12562	-1	1.7	-3	1	5	14
Cc1cccc(NC(=O)C2(c3ccc([N+](=O)[O-])cc3)CCCC2)c1	3773	-8	3.3	-17	-5	16	9
Cc1ccc(NC(=O)Nc2cccc(C(F)(F)F)c2)nc1	1969	-8	2.8	-28	-16	10	7
CC1CCCCN1C(=O)Cn1c(=O)n(CCC(=O)NCc2ccco2)c(=O)c2sccc21 (stereo not drawn)	19227*	3	5.1	-26	-3	1	7
CCC/C(=N\NC(=O)c1ccco1)c1ccc(Cl)s1	7115	.	.	-11	1	.	.
O=C(NN=Cc1ccsc1)c1ccc2ccccc2n1	.	-4	1.1	.	.	-4	-6
